hNpr1 antagonist: human Npr1 receptor antagonism | P16066 | HEK293 hNpr1 GloSensor cGMP, ANP-stimulated luminescence | Potency, µM (titrated, usually from 46.3 µM), inactives show at the top dose activity change, negative = inhibition, usual class: inhibitors | 76,000 tested, 1.6% active; active = well fitted inhibition curve with a large enough effect; inconclusive = small, poorly fitted or top-dose-only effect; inactive = no such curve, though single readings can be large or run the other way;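 note: nearly all actives have a fitted effect of over 60% in size; nearly all hits also lower the signal before the agonist is added; a reference antagonist and vehicle were the controls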
Target sequence (P16066 whole entry, looked up): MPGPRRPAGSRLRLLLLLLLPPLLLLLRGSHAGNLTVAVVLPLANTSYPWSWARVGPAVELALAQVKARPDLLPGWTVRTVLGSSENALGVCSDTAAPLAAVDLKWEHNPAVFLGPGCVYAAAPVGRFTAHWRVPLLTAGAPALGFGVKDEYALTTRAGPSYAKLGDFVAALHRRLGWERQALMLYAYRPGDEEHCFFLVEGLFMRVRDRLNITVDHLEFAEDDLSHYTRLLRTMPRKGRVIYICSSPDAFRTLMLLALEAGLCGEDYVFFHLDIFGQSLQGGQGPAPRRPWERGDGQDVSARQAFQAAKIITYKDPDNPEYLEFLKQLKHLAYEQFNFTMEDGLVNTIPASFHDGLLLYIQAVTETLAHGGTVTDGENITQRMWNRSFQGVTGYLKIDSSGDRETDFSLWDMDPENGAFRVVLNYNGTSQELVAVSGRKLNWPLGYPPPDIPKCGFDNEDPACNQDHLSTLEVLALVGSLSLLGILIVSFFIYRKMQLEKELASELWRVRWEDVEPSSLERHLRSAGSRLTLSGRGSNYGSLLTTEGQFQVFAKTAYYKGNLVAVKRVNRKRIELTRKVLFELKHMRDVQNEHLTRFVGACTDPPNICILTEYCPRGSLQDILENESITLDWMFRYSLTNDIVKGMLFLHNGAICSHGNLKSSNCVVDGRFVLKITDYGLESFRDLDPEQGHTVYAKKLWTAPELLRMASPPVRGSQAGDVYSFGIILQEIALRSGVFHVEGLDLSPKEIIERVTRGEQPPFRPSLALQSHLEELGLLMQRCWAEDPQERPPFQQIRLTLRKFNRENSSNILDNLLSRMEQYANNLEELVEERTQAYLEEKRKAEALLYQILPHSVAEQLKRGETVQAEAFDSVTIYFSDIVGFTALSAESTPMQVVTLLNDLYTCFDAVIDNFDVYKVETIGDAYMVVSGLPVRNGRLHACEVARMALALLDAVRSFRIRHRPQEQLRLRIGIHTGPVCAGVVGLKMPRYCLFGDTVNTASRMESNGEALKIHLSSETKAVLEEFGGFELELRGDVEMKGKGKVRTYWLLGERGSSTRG
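HEK293 cells stably expressing human Npr1 and cGMP GloSensor pGS-40F, loaded 2 h with 2% GloSensor reagent, given compound 30 min at room temperature. Luminescence read before and 20 min after 0.1 nM hNppA.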
* marks the source's active call; other numbers are inactive results; ? = inconclusive; [ ] = another dose, or the depositor's remark. % is set by controls: 0 for no effect and ±100 for the full control effect; potency is the fitted concentration of half-maximal effect.

Start of the listing, in advance:
SMILES	hNpr1 antagonist
O=C(C1CCCC1)N1CCCC(c2noc(COc3ccccc3)n2)C1 (centres undefined)	0.0%
C=CCNC(=O)C(NC(=O)c1cccc(OC)c1)C1CCN(C(=O)c2cccc(C)c2)CC1 (centres undefined)	0.9%
N#Cc1cccc(NC(=O)CN2C(=O)NC3(CCOCC3)C2=O)c1	-15.1%
O=C(Nc1cccc(-c2ccc(N3CCOCC3)nn2)c1)Nc1cc(Cl)ccc1Cl	-18.7%
O[C@@H]1CO[C@H]2[C@@H]1OC[C@@H]2n1nnnc1SC1CCCC1	-1.3%[70.6 µM]
CC(C)(Oc1nn(Cc2cccc(Cl)c2)c2ccccc12)C(=O)N1CCN(CCO)CC1	?
CCN(Cc1noc(C2CCC2)n1)C(=O)CN1C[C@@H]2CC[C@H](CC1=O)N2	5.3%

The whole of this part, from the first entry:
SMILES	hNpr1 antagonist
O=C(C1CCCC1)N1CCCC(c2noc(COc3ccccc3)n2)C1 (centres undefined)	0.0%
C=CCNC(=O)C(NC(=O)c1cccc(OC)c1)C1CCN(C(=O)c2cccc(C)c2)CC1 (centres undefined)	0.9%
N#Cc1cccc(NC(=O)CN2C(=O)NC3(CCOCC3)C2=O)c1	-15.1%
O=C(Nc1cccc(-c2ccc(N3CCOCC3)nn2)c1)Nc1cc(Cl)ccc1Cl	-18.7%
O[C@@H]1CO[C@H]2[C@@H]1OC[C@@H]2n1nnnc1SC1CCCC1	-1.3%[70.6 µM]
CC(C)(Oc1nn(Cc2cccc(Cl)c2)c2ccccc12)C(=O)N1CCN(CCO)CC1	?
CCN(Cc1noc(C2CCC2)n1)C(=O)CN1C[C@@H]2CC[C@H](CC1=O)N2	5.3%
O=C(Nc1cccc2ccccc12)N[C@H]1CO[C@H]2[C@@H]1OC[C@@H]2n1nnnc1Oc1ccc2c(c1)OCO2	2.9%
COc1ccc(CCC(=O)N2CCCC3(CC2)CN(C)C(=O)O3)cc1OC (centres undefined)	11.2%
O=C1NCCCCCN(C(=O)c2cnccn2)[C@H]2CCCC[C@@H]12	-2.4%
O=C(Nc1ccc(C2(C(=O)O)CCC2)cc1)C1CC1	0.7%
CC(C)c1noc(-c2cn(C3CCN(C(=O)c4ccoc4)C3)nn2)n1 (centres undefined)	0.0%
O=C(Cc1ccccc1Cl)N1CCN(C(=O)c2nnn3c2COC(c2ccc(F)cc2)C3)CC1 (centres undefined)	-2.5%
CCc1cccc(C)c1NC(=O)CN1C(=O)C(c2ccccc2)=NC12CCCC2	6.3%
O=C(CCn1ccn2nc3c(c2c1=O)CCCC3)NCc1cccs1	1.6%
CN(CC1CCOCC1)S(=O)(=O)c1ccc(F)c(Cl)c1	-19.0%
COc1ccc(CNC(=O)N2CCC(Cc3nc(-c4ccncc4)n[nH]3)C2)cc1 (centres undefined)	0.2%
Cc1ccc(-n2cccn2)c(CN2CCC(CNS(C)(=O)=O)C2)c1 (centres undefined)	-2.1%
O=C(O)c1ccc2c(c1)CC(=O)N2Cc1cccc(F)c1	-1.8%
Cc1cccc(O[C@H]2COCCN(C(=O)c3ccc(C(F)(F)F)cc3)C2)n1	5.8%[70.6 µM]
COc1ccc2cc(C3CN(C(=O)c4cccn4C)CCO3)ccc2c1 (centres undefined)	15.8µM*
O=C(NC[C@H]1O[C@H](Cc2cc(COc3ccccc3)on2)CC[C@@H]1O)Nc1ccccc1	-2.5%
CCC(CC)CN1CCOCCNC(=O)CC1	5.9%
CNC(=O)[C@@H]1C[C@H](n2cc(CN(C)C(=O)c3cccc(F)c3F)nn2)CN1	-1.5%
Cn1cc(CCCC(=O)Nc2ccc3c(c2)C(=O)N2CCC[C@H]2C(=O)N3)c2ccccc21	-2.1%
More entries
SMILES	hNpr1 antagonist
O=C(NCc1ccc(Cl)cc1)c1cc2n(n1)CC(c1ccc3c(c1)OCO3)OC2 (centres undefined)	-27.3%
CCCCc1nn(CC(=O)N2CCC(COC)C2)c(=O)n1Cc1ccccc1 (centres undefined)	6.3%
c1ccc(Nc2ncc(-c3ccccc3)c3c2OCC3)cc1	-29.0%[70.6 µM]
CC1(C)CC(NC(=O)Cn2nc3c(cc2=O)CCCC3)CCO1 (centres undefined)	2.6%
NC[C@H]1O[C@@H](CO)[C@@H](O)[C@H]1N1CCN(c2ccccn2)CC1	1.6%[70.6 µM]
CCOC(=O)CC1COCCN1C(=O)c1cn(CCCc2ccccc2)nn1 (centres undefined)	7.9%
O=C(Cc1ccccc1)NCCC1CCN(C(=O)Nc2ccccc2)CC1	2.3%
OC1CC(c2cc(N3CCC(Cc4noc(C5CC5)n4)CC3)ncn2)C1 (centres undefined)	0.794µM*
Cc1cc(Cn2cc3c4c(cccc42)[C@H](CC(C)C)N[C@H](C(=O)NCCN2CCCC2)C3)no1	-7.0%
Cc1nc(C)c(C(=O)NCC(=O)N2CCCCCCNC(=O)CC2c2ccccc2)s1 (centres undefined)	2.4%
CN(Cc1ccccc1)C(=O)[C@@H]1Cc2nc[nH]c2CN1	6.0%[70.6 µM]
O=C(COc1ccc(F)cc1)NC1CCN(c2cc(C(F)(F)F)ncn2)CC1	?
O=C(NCc1ccccc1)N1CCC2(CC1)SCC(=O)N2c1ccc(Cl)cc1	-2.0%
Cc1noc2c(NCC3CCOCC3)cc(-c3cccnc3)nc12	6.6%[70.6 µM]
CCCCC(=O)NC1CCN(c2cnn(CCOC)c(=O)c2)CC1	0.1%
Cc1cc(C(=O)N2C[C@@H](Oc3ccccc3)C[C@H]2C(=O)N2CCCC2)nn1C	0.3%
COCCNC(=O)c1cc2c(=O)[nH]c(-c3ccccc3)cn2n1	4.2%
COc1cccc(C(=O)N2CC(Oc3ccc(-c4noc(-c5ccccc5)n4)cc3)C2)c1	1.8%
CCCCNC(=O)c1cccc2c1CCN2C(=O)c1ccc(F)cc1	4.9%
CCOc1ccc(NC(=O)Cn2nc3n(c2=O)CCCCC3)cc1	0.9%
COCc1nc(C2CCN(S(=O)(=O)c3ccc(C#N)cc3)C2)no1 (centres undefined)	-3.9%
COCCN1C(=O)[C@H]2CN(CCC(C)C)C[C@H]2C1=O	-1.6%
Cc1ccccc1S(=O)(=O)N(C)CC1CCOCC1	1.1%
COCC1CN(C2CCC2)CC12CCN(C(=O)Cc1ccccc1OC)CC2 (centres undefined)	-19.5%
O=C(c1cccc2c1CCN2C(=O)C1CC1)N1CCCCC1	0.0%
Carrying on:
SMILES	hNpr1 antagonist
O=C(OCc1ccccc1)N1CCC2(CC1)C(=O)NN=C2c1ccncc1	-24.0%
CN(C)CCNC(=O)C1Cn2cccc2C(=O)N1Cc1ccccc1 (centres undefined)	-7.2%
Cn1cccc1CN1CC[C@@H]2C(=O)NCCCCCCN(Cc3ccncc3)[C@@H]2C1	6.1%
COCCOc1ccc2c(n1)CCN(C(=O)c1cccnc1)C2	0.3%
CC(=O)Nc1ccc(C)cc1S(=O)(=O)N1CCC(C)(c2noc(C)n2)CC1	-0.7%
Cc1cccc(CNC(=O)c2c(C)noc2-c2cccs2)c1	-7.8%
COC1CCN(C(=O)c2ccnc(-c3nnc4ccc(N(C)C)nn34)c2)CC1	6.2%[70.6 µM]
CC(C)CCN1C[C@@H]2C[C@H]1C(=O)N(C)c1ccccc1O2	3.0%[70.6 µM]
CN1CCCCCCN(C(=O)COc2ccccc2)[C@H]2CCC[C@H]2C1=O	-4.0%
CCC[C@@H]1CN(c2cc(NCCO)ncn2)C[C@H]1C(=O)O	11.1%
Cc1cc(C(=O)N2CCC3(CC2)CC(N2CCN(CC(C)C)CC2)CCO3)n[nH]1 (centres undefined)	-0.2%
Cc1nc(-c2c3n(c(=O)n(CC(=O)Nc4ccc(Cl)cc4)c2=O)CCCCC3)no1	-2.2%
O[C@@H]1[C@@H](Cn2cc(-c3cccnc3)nn2)C[C@@H](NCc2nccs2)[C@@H]1O	2.7%
CC(C)=CC(=O)N1C[C@@H](NC(=O)Nc2ccc(F)cc2F)C[C@H]1C(=O)N[C@H](Cc1c[nH]c2ccccc12)C(N)=O	-9.6%
CN(C)C[C@@H]1CN(c2ccccn2)C[C@H]1NC(=O)CC1=CCCCC1	3.5%
Cc1ccc(NC(=O)N2CCC(Oc3ncccc3C(=O)N3CCCCC3)C2)cc1 (centres undefined)	-1.0%
CC1(C)[C@H](Cc2cc(CCO)on2)C[C@@H]1NCC1CC1	5.6%[70.6 µM]
Cc1ccsc1CN1CCc2c(sc3ncnc(N(C)C)c23)C1	-5.1%
COc1ccc(C(=O)N2CCC(c3noc(-c4cccnc4)n3)C2)cn1 (centres undefined)	1.5%
CC(=O)N1CCCN(CC[C@H]2CN(C(=O)c3ccc(F)cc3)CC[C@H]2CC(=O)O)CC1	-0.6%[70.6 µM]
C=CCCC(CN1CCCOCC1)Oc1nccc(N(C)CC)n1 (centres undefined)	0.0%
CCOc1ccc(C(=O)N[C@H](c2ccc(OC)c(F)c2)C2CC(O)C2)o1 (some centres undefined)	0.7%
O=C(NC1CC(c2cc(=O)[nH]c(C3CC3)n2)C1)c1ccc2c(c1)CCCO2 (centres undefined)	-0.5%
C[C@H]1[C@@H]2[C@@H](O)C([C@H](C)C(=O)NC(C)(C)C)CC[C@@]2(C)CC[C@@H]1NC(=O)c1cccc(F)c1 (some centres undefined)	-1.0%
CN(C)c1ccc(CN[C@H]2C[C@H]3C(=O)NC[C@@H](CCC(=O)NC4CC4)N3C2)cc1	-3.0%[70.6 µM]

Part of the list above in order of heavy-atom count, falling:
SMILES	hNpr1 antagonist
Cc1nc(C)c(C(=O)NCC(=O)N2CCCCCCNC(=O)CC2c2ccccc2)s1 (centres undefined)	2.4%
CN(C)c1ccc(CN[C@H]2C[C@H]3C(=O)NC[C@@H](CCC(=O)NC4CC4)N3C2)cc1	-3.0%[70.6 µM]
c1ccc(Nc2ncc(-c3ccccc3)c3c2OCC3)cc1	-29.0%[70.6 µM]

Following part:
SMILES	hNpr1 antagonist
CC(C)NS(=O)(=O)c1ccc2c(c1)nc(-c1cc(C(C)(C)C)[nH]n1)n2C(C)C	-1.3%
CN(Cc1ccccc1Cl)Cc1cccn1C	4.5%[70.6 µM]
Cc1ccc(C(=O)N2C[C@@H](Oc3cccnc3)C[C@H]2C(=O)N2CCOCC2)cn1	-6.3%
Cc1cccc(-n2nc(-c3c(C)nc4scc(CC(=O)N5CCCC5)n4c3=O)cc2C)c1C	1.4%
Cn1cc(CN2CCNc3cc(-c4ccccc4)ncc3C2)cn1	3.2%[70.6 µM]
Cc1noc([C@@H]2CN(Cc3ccncc3F)C[C@H]2C(N)=O)n1	-2.0%
O=C(Cc1c[nH]c2ncc(-c3cccnc3)cc12)NCCc1ccccn1	-0.6%[70.6 µM]
O=C(c1cc(-c2ccc(O)cc2)n[nH]1)N1CCOC2(CNCCOC2)C1 (centres undefined)	2.4%
CC(C)CNC(=O)C1CC(c2ccc(F)cc2)=NO1 (centres undefined)	0.1%
OCC1CN(Cc2ccoc2)CCC12CCN(Cc1cccc(O)c1)CC2 (centres undefined)	-0.2%
Cc1cc(C(=O)NCC2(COc3ccc(C(F)(F)F)cn3)C[C@@H](O)[C@@H](O)C2)n(C)n1 (some centres undefined)	3.5%
O=C(CCc1nc2ccccc2s1)NCC1CCCCC(=O)N1 (centres undefined)	-4.2%
COC[C@H]1CCCN1[C@@H]1[C@H](O)[C@H](CO)O[C@@H]1CNC(=O)Nc1ccccc1	-8.1%[70.6 µM]
CC(C)C(=O)N1CCN(C(=O)N2CC3CC(C2)[C@H]2CCCC(=O)N2C3)CC1 (some centres undefined)	5.2%
Cc1noc(C)c1CN1CCCC(COc2ccccc2C(=O)N2CCOCC2)C1 (centres undefined)	-10.5%
CN(CC(=O)N1CCC(CCOc2ccccc2F)C1)S(=O)(=O)c1ccc2c(c1)oc(=O)n2C (centres undefined)	-23.3%
CC(=O)N1CCN(c2nc(-c3c(C)noc3C)cc3c2cc(-c2ccccc2)n3C)CC1	-8.2%[70.6 µM]
COc1ccc(Nc2cnc3ccc(N4CCOCC4)nn23)cn1	-1.0%[70.6 µM]
O=C1NCCN(Cc2cccc(Oc3ccccc3)c2)C1CC(=O)N1CCCOCC1 (centres undefined)	-4.2%
Cc1noc(C)c1S(=O)(=O)N1CC(N(C)Cc2cccnc2)C1	-0.1%
CC1(c2noc(-c3ccccn3)n2)CCN(C(=O)CCC(=O)N2CC(=O)Nc3ccccc32)CC1	0.8%
C[C@]1(CO)C2CC[C@@H](O)[C@@H](CC(=O)N3CCCC3)[C@]2(C)CC[C@H]1OC(=O)Nc1ccccc1 (some centres undefined)	3.8%
Cc1ccc(CN2CCN(c3cc(C)nc(N)n3)CC2CCO)cc1 (centres undefined)	-9.3%
COc1cccc(CN2CCOC3(CCN([S+](=O)([O-])c4ccccc4)CC3)C2=O)c1	-24.5%[70.6 µM]
CN(C)C(=O)c1cnn2ncccc12	14.2%[70.6 µM]
Continued.
SMILES	hNpr1 antagonist
COc1cc(OC)cc(C(=O)N[C@@H]2COCC[C@@H]2Oc2cccc(F)c2)c1	-4.9%
COCCc1nncn1C1CCN(S(=O)(=O)c2ccc(OC)cc2)CC1	-3.3%
O=C(COc1ccccc1)N1C[C@@H]2C[C@H](C1)c1c(NS(=O)(=O)c3ccccc3)ccc(=O)n1C2	1.5%
CC(=O)N1CCC(N2CCC[C@H]2c2nc(-c3ccnc(N4CCC(C(N)=O)CC4)c3)no2)CC1	-6.3%
CC(C)CC(=O)N1CCC(Oc2nccnc2N(C)C)C1 (centres undefined)	3.1%
COc1ccc(CCN2CCC(CN(C)C(=O)C3CCCCO3)CC2)cc1 (centres undefined)	1.2%
CCn1c(CO)nnc1C1CC(NC(=O)Cc2c(C)[nH]c(=O)[nH]c2=O)C1 (centres undefined)	3.7%
CCn1c(C)c(CN2CCc3nc(N4CCN(C)CC4)[nH]c(=O)c3CC2)c2ccccc21	4.2%
Cc1ccccc1C(=O)N1CCC(n2cnnc2C2CC2)CC1	6.3%
COc1ccc(C(=O)N2CCN(C(=O)c3nnn4c3COC(c3ccccc3)C4)CC2)c(C)c1 (centres undefined)	-22.3%
COc1cc(Cl)ccc1C(=O)N[C@@H]1CN(c2ncccn2)C[C@H]1CN(C)C	-1.5%
COc1ccc(OC2CCN(C(=O)C3CC3)CC2)c(C(=O)N2CCCCO2)c1	6.2%

An excerpt; rates above refer to the full screens.
